eIF4H FP inh: inhibitors of RNA binding by human eIF4H; hit rate 0.94% among 290,000; inhibition, % at 35 µM; eIF4H fluorescence polarization binding assay; AID 2012; Q15056;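 active = 50% or more with normal probe brightness, or confirmed in later tests; inconclusive = above 50% with abnormal brightness, or retests that disagree; inactive = below 50% or failed in later tests; about a fifth of its hits are not listed in these tables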;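 note: calls also rest on retests at 20 µM and on dose response follow-up; 0% = protein and probe with vehicle and 100% = probe without protein; strong numbers were not always called active; many hits fall short of the cut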
Rce1 inh: yeast Ras-converting enzyme inhibition; Q03530; yeast membranes, quenched prenylated peptide cleavage fluorescence; hit rate 0.27% among 290,000; calls only;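 active = fall in fluorescence gain of 50% or more versus controls, with final raw signal at or below 3038400; inconclusive = same 50% fall but final raw signal above 3038400; inactive = fall in fluorescence gain under 50%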;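 note: plate controls were neutral control wells for no effect and wells lacking membranes for full effect; tested at 10 µM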
Target sequence (Q03530 whole entry, looked up): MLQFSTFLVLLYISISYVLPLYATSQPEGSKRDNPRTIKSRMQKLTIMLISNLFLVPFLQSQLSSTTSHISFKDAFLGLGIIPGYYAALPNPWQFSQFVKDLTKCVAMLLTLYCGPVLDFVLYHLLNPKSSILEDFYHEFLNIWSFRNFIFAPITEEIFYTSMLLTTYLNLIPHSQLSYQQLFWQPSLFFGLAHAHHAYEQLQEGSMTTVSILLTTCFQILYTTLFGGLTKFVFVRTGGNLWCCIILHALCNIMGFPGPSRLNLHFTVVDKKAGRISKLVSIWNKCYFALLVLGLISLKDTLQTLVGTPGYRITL
PABP polyA inh: blocks human PABP binding to poly(A) RNA; P11940; fluorescence polarization; inhibition, % at 35 µM; hit rate 1% among 290,000;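 active = 50% or more with normal probe brightness, or confirmed in later tests; inconclusive = above 50% with abnormal brightness, or retests that disagree; inactive = below 50% or failed in later tests; about a fifth of its hits are not listed in these tables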;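 note: calls also rest on retests at 20 µM and on dose response follow-up; controls were probe without protein and protein plus probe with vehicle; some compounds called inactive have numbers as strong as hits; many hits fall short of the cut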
CSC inhib: cancer stem cell inhibition | inhibition, % at 7.5 µM | hit rate 1.1% among 300,000 | cancer stem cell-like cells viability, luminescence | AID 2717;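 active = mean at 75% or more and at least half the replicates too; inconclusive = mean and replicates disagree; tested in HMLE shEcad cells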;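 note: 0% = median of negative and 100% = median of positive control wells; the first replicate is given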
MT1-MMP act inh: blocks activation of human MT1-MMP; HT1080 RFP-PRO-GFP cells, GFP/RFP ratio fluorescence, overnight; percent of plate control window, DMSO zero; GFP/RFP ratio change, % at 20 µM; hit rate 0.061% among 360,000;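 active = GFP/RFP ratio change of at least 30% with cell ATP level not reduced by more than half and red fluorescence within 50% of control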; note: strong numbers were not always called active
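Material – HT1080 RFP-PRO-GFP cells · Control set – DMSO wells and RFP-L50D-GFP cells · Incubation – overnight cell settling, then overnight compound exposure, 37 °C, 5% CO2 · Compound dosing – single-point 20 µM compound, 1% DMSO · Read-out – GFP/RFP fluorescence ratio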
Env fusion inh: blocks HIV Env-driven cell-cell fusion; HeLa-JRFL Env/CEM21 cell fusion, luciferase; inhibition, % at 12.3 µM; hit rate 1.1% among 360,000; AID 651610;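 active = mean replicate inhibition score of at least 50 and every replicate individually at or above 50; inconclusive = only one of the two criteria met; inactive = mean below 50 and not all replicates reaching 50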;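 note: 0% = plate neutral controls and 100% = maraviroc near 300 nM; one replicate is shown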
Yeast UUG start: alters start codon recognition fidelity in yeast | S. cerevisiae UUG-firefly luciferase reporter, luminescence/redox ratio | activity score, % at 18.7 µM | hit rate 0.13% among 350,000 | AID 602363;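 active = replicate mean at a twofold rise or more, about +100% in these data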;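 note: firefly luciferase made from a UUG start codon reports start codon fidelity; reporter light over untreated wells divided by growth signal over untreated wells; some hits fall short of that in this replicate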
MT1-MMP act inh RFP: recorded beside MT1-MMP act inh, whose call it bears; RFP signal change, %; measured here: RFP expression control read;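 0 = vehicle wells; hits needed this value within 50% of zero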
The depositor's hits bear a star; i = inactive; u = inconclusive; x = no result given.

SMILES	eIF4H FP inh	Rce1 inh	PABP polyA inh	CSC inhib	MT1-MMP act inh	MT1-MMP act inh RFP	Env fusion inh	Yeast UUG start
O=C(OCC(=O)N1CCCCCC1)c1ccc(Br)c(S(=O)(=O)N2CCOCC2)c1	x	x	x	-10	0	-4	-22	11
NS(=O)(=O)c1cccc(NC(=O)c2cccc3c(Br)cccc23)c1	-7	i	-4	-1	-1	-7	9	-15
COCOc1cc(O)c(C(=O)/C=C/c2ccc(OCOC)c(OCOC)c2)c(OCOC)c1	x	i	x	9	-4	-6	x	-8
CC(C)C[C@@H](C)C(=O)N(Cc1ccccc1)c1ccccc1	x	x	x	10	-2	-3	14	-16
CC(=O)Nc1cc(-c2cccc(NS(C)(=O)=O)c2)cn2c(-c3ccccc3)cnc12	x	x	x	x	2	4	17	2
C=CCc1cccc2cc(C(=O)Nc3cccc(C(=O)O)c3)c(=O)oc12	-4	i	16	0	x	x	-11	x
CCOC(=O)c1ccc(NC(=O)CCOc2ccc(OC)cc2)cc1	-4	i	-6	-3	3	0	-120	-24
Cc1[nH]c2ccccc2c1/C=C(\C#N)C(=O)NCc1ccccc1	u	i	-3	4	-3	-1	-6	x
CCOc1ccc(NC(=O)C(C)Sc2nnnn2C)cc1 (stereo unspecified)	5	i	-11	1	8	4	x	1
Cn1c(C(=O)NC2CC2)cc2c(=O)n(C)c3ccccc3c21	5	i	-4	3	17	5	-124	-6
CCN(CC)S(=O)(=O)c1ccc(C)c(NS(=O)(=O)c2cc(/C=C/C(=O)O)cc(OC)c2OC)c1	2	i	-3	0	0	1	-1	x
CCOC(=O)Cc1cnc(NC(=O)NC(C(=O)OCC)(c2ccccc2)C(F)(F)F)s1 (stereo unspecified)	-2	i	-1	-13	-6	-1	-62	-11
Cc1ccc(CCNC(=O)CCc2nc3ccccc3[nH]2)cc1	2	i	13	10	0	-1	19	-6
COc1cccc(CNC(=O)C2CCCN(S(=O)(=O)c3c(C)noc3/C=C/N(C)C)C2)c1 (stereo unspecified)	4	i	7	-14	-6	1	2	3
O=C(Cc1cccs1)N1CCN(c2ccccn2)CC1	-8	i	3	-4	-2	-2	x	x
O=C(Cn1nnc2ccccc21)c1ccc([N+](=O)[O-])cc1	-2	i	-8	-7	-14	-1	4	x
O=C(CNC(=O)c1ccco1)OCC(=O)c1ccccc1Cl	8	i	3	-23	-1	1	-3	-18
O=C(NC1CCSc2ccccc21)c1cc(S(=O)(=O)N2CCOCC2)ccc1Cl (stereo unspecified)	x	i	x	-2	2	-5	9	-6
CCc1ccc(C(=O)COC(=O)C(Cc2ccccc2)NC(=O)C2CCC(C)CC2)cc1 (stereo unspecified)	-2	i	-1	-4	-2	-1	-110	-8
CC(=O)c1cccc(NC(=O)c2sc3nc4n(c(=O)c3c2C)CCCC4)c1	1	i	14	-10	3	2	-8	-10

Part of the list above in order of formula weight, rising.
SMILES	eIF4H FP inh	Rce1 inh	PABP polyA inh	CSC inhib	MT1-MMP act inh	MT1-MMP act inh RFP	Env fusion inh	Yeast UUG start
Cc1ccc(CCNC(=O)CCc2nc3ccccc3[nH]2)cc1	2	i	13	10	0	-1	19	-6
CCOC(=O)c1ccc(NC(=O)CCOc2ccc(OC)cc2)cc1	-4	i	-6	-3	3	0	-120	-24
CCOC(=O)Cc1cnc(NC(=O)NC(C(=O)OCC)(c2ccccc2)C(F)(F)F)s1 (stereo unspecified)	-2	i	-1	-13	-6	-1	-62	-11

Going on with the list:
SMILES	eIF4H FP inh	Rce1 inh	PABP polyA inh	CSC inhib	MT1-MMP act inh	MT1-MMP act inh RFP	Env fusion inh	Yeast UUG start
CCOc1cc(NC(=O)c2cccs2)c(OCC)cc1NC(=O)c1ccco1	-13	i	-6	-10	4	6	x	x
Cc1cccc(C)c1NC(=O)CN(C)C(=O)[C@H](C)NC(=O)c1ccco1	x	x	x	-9	1	2	5	-10
O=[N+]([O-])c1cc(F)c2cccnc2c1O	14	i	7	15	13	6	6	-63
COc1ccc(OC)c(NC(=O)CC2C(=O)NCCN2C(=O)c2ccccc2)c1 (stereo unspecified)	-6	i	6	1	0	-1	-3	-1
O=C(Nc1ccccc1N1CCN(C(=O)c2ccccc2)CC1)c1ccc(Cl)cc1	4	i	-12	4	-4	-6	-3	0
C[C@H](NC(=O)Cc1ccccc1)C(=O)N1CCC2(CC1)NCCc1[nH]cnc12	x	i	x	-24	1	4	-2	-16
CCN(C(=O)CN1CCCCCC1)c1c(N)n(Cc2ccccc2)c(=O)[nH]c1=O	x	x	x	14	-8	5	13	x
Cc1ccc2nc(SCC(=O)Nc3cccnc3Cl)[nH]c2c1	x	x	x	-5	2	2	x	-13
COc1ccc(-c2noc(C(=O)NCc3ccccc3Cl)n2)cc1OC	3	i	-14	7	3	5	13	x
CCOc1ccc(NC(=O)CCC(=O)NNC(=O)Nc2cccc(Cl)c2)cc1	1	i	5	-6	-3	-2	9	x
CCN(CCS(=O)(=O)c1ccc(Cl)cc1)Cc1nc2ccccc2c(=O)[nH]1	x	x	x	-2	-1	-4	6	-32
O=C(NC(Cc1c[nH]c2ccccc12)C(=O)Nc1ccc(F)cc1)c1cccs1 (stereo unspecified)	1	i	8	-13	-4	-4	-34	-13
CCOC(=O)CCCNC(=O)CN1C(=O)NC(CCc2ccccc2)C1=O (stereo unspecified)	-5	i	-3	x	0	4	-39	21
CCOC(=O)N1CCN(CCC(=O)Nc2ccc(Br)cc2)CC1	6	i	2	10	13	-8	19	-9
Cc1ccc(/C=C/C(=O)Nc2nnc(C)s2)o1	34	i	2	-7	-1	1	3	x
CCc1ccc2oc(C(=O)N3CCN(C)CC3)cc(=O)c2c1	-6	i	6	-19	5	3	12	-5
Cn1c(/C(C#N)=C/c2cccc(O)c2)nc2ccccc21	1	i	2	-4	-4	0	-39	-6
O=C(c1cccc(N2C(=O)C3CC=CCC3C2=O)c1)N1CCCCCC1 (stereo unspecified)	23	i	-6	x	3	1	-35	x
COc1ccc(OC)c(-c2nnc(NC(=O)C(C)Sc3nncn3C)s2)c1 (stereo unspecified)	-4	i	9	-8	-5	3	-14	17
CCc1cc2ccccc2nc1SCC(=O)NC1CCCC1	-6	i	5	-9	-3	-5	6	-19
O=C(NCc1ccc(F)cc1)c1cc(C2CCCN(C(=O)c3cccs3)C2)on1 (stereo unspecified)	x	x	x	x	2	-2	1	-11
CSCCC(NC(=O)c1cc(C)oc1C)C(=O)O (stereo unspecified)	6	i	4	-10	-7	4	-56	-10
COc1cccc(Cn2c(=O)oc3ccccc32)c1	-8	i	-3	-10	5	5	-40	0
Cc1ccc(CN2C(=O)C(C)Sc3ccc(C#N)cc32)cc1 (stereo unspecified)	x	x	x	x	0	1	5	-23
COC(=O)C1=C(C)N(CC2CC2)C(=NCc2cc(OC)c(OC)c(OC)c2)N[C@H]1c1ccccc1	-7	i	41	-7	2	6	x	2
CC(=O)Cc1nsc(NC(=O)c2ccc(COc3ccccc3Cl)o2)n1	3	i	5	x	6	4	4	-31
Cc1ccc2[nH]cc(CCNS(=O)(=O)c3ccc(F)cc3)c2c1	-10	i	7	x	1	3	1	-3
CCCNC(=O)CCC(=O)Nc1ncc(-c2ccc(C)cc2)n1C	-3	x	4	-7	-3	-2	6	5
COCC(=O)Nc1cc(C(=O)NCC(C)C)ccc1Cl	6	i	-3	-2	2	3	10	x
COc1cc(OC)cc(C(=O)NCCCCNC(=O)c2cc(OC)cc(OC)c2)c1	x	x	x	-8	-1	-3	4	-20
CCOC(=O)c1cc(C)sc1NC(=S)Nc1ccccc1	-2	i	-7	6	-1	6	x	-1
CC(=O)N1CCCc2cc(S(=O)(=O)N3CCCC(C)C3)ccc21 (stereo unspecified)	-14	i	3	-4	3	3	-1	-9
CCOC(=O)Cn1c(=O)oc2cc(S(=O)(=O)N(C)Cc3ccccc3)ccc21	0	i	-11	-5	7	6	-2	-16
Cc1ccc(NC(=O)c2sccc2C)cc1S(=O)(=O)N(C)C	6	i	0	-8	-1	0	x	-11
O=C(O)C1[C@H]2C(=O)N(Cc3cccs3)C[C@]23C=C[C@H]1O3 (stereo partly specified)	2	i	4	-10	1	7	-4	-11
CS(=O)(=O)N(CC(=O)N1CCCC1)c1ccc2c(c1)OCCO2	-7	i	5	-4	4	2	x	-8
CCOC(=O)c1sc(NC(=O)CCN2CCN(C)CC2)c(C(=O)OCC)c1C	1	i	-4	19	-6	-4	4	-11
CCc1nc2c(OCC(N)=O)cccn2c1N(C)C(=O)c1cccs1	x	x	x	x	-2	3	i	-7
OC(CNCCc1ccc(Cl)cc1)COCc1ccco1 (stereo unspecified)	5	i	3	2	-2	2	x	-9
CCCCn1c(N)c(N(CC)C(=O)c2cccc(S(=O)(=O)N3CCCc4ccccc43)c2)c(=O)[nH]c1=O	x	i	x	3	-3	1	42	-4

Only MT1-MMP act inh RFP and Env fusion inh, for 5 of the compounds above:
| Structure | MT1-MMP act inh RFP | Env fusion inh |
| --- | --- | --- |
| Cn1c(C(=O)NC2CC2)cc2c(=O)n(C)c3ccccc3c21 | 5 | -124 |
| O=C(Cn1nnc2ccccc21)c1ccc([N+](=O)[O-])cc1 | -1 | 4 |
| OC(CNCCc1ccc(Cl)cc1)COCc1ccco1 (stereo unspecified) | 2 | x |
| CCOc1cc(NC(=O)c2cccs2)c(OCC)cc1NC(=O)c1ccco1 | 6 | x |
| CCOc1ccc(NC(=O)C(C)Sc2nnnn2C)cc1 (stereo unspecified) | 4 | x |

(further entries)
SMILES	eIF4H FP inh	Rce1 inh	PABP polyA inh	CSC inhib	MT1-MMP act inh	MT1-MMP act inh RFP	Env fusion inh	Yeast UUG start
COc1ccccc1N1CCN(S(=O)(=O)CCNC(=O)c2ccc(Br)o2)CC1	-2	i	6	4	1	3	-8	-8
CCCc1cc(=O)oc2c3c(cc(OCC(=O)NCc4ccncc4)c12)OC(C)(C)CC3	-1	i	0	42	5	-6	x	-12
Cc1cc(C)n2c(Nc3ccc4c(c3)OCCO4)c(-c3ccccc3)nc2n1	-2	i	11	-25	-7	-4	-94	x
CCn1c(CC(=O)Nc2ccccc2C)nnc1SCC(=O)NC1CCCC1	-7	i	4	6	2	4	26	-19
CCn1c(=O)c(C(=O)NC(C)C)c(O)c2ccccc21	-2	i	-11	18	6	2	-16	15
COc1ccc(Nc2ncc(C#N)c(N)n2)c(OC)c1	-10	i	5	-3	6	-2	-19	-2
COc1ccccc1NC(=O)N[C@@H](Cc1c[nH]c2ccccc12)C(=O)NN	10	i	3	-10	-1	2	-1	-1
COc1ccc(CC(C)N2CCN(Cc3ccccc3)CC2)cc1OC (stereo unspecified)	-5	i	10	-3	0	0	x	-8
COc1ccc2cc(C(=O)c3ccccc3)c(=O)oc2c1	-6	i	4	2	-6	4	x	-14
COc1ccc(C(CNC(=O)c2cccc(NS(=O)(=O)c3ccc(C)c(F)c3)c2)N2CCOCC2)cc1 (stereo unspecified)	x	i	x	-1	6	1	x	9
CCOc1cc(C(=S)N2CCCC2)ccc1OCc1ccccc1	-1	i	-2	-1	4	-2	14	16
O=c1[nH]cc(CCCc2ccccc2)c(=O)[nH]1	x	x	x	x	2	1	-16	-24
Cc1c(Cl)cccc1NC(=S)N(Cc1ccco1)C(C)c1ccccn1 (stereo unspecified)	7	i	7	-5	8	2	3	x
Cc1nnc(SC(C)C(=O)Nc2ccc3ccccc3c2)n1C (stereo unspecified)	x	x	x	-15	0	0	x	-10
COc1ccc(NC(=S)N2N=CCC2c2ccccc2)cc1 (stereo unspecified)	1	i	-3	-17	5	1	-282	-34
COc1ccc(-c2csc(/C=C/c3ccc4c(c3)OCO4)n2)cc1OC	-12	i	8	20	3	4	17	x
COc1ccc(NC(=O)COC(=O)COc2cccc3c2OC(C)(C)C3)cc1	x	i	x	-2	7	4	x	x
Cc1cc(S(=O)(=O)N2CCCC(N(C)CCc3ccccn3)C2)c(C)s1 (stereo unspecified)	-2	x	12	-11	-1	1	x	2
